MARV entry inh: Marburg virus entry inhibition | Marburg virus pseudotyped entry inhibition, cell reporter; control for the full effect not named in the record; about a third of the inactives were read at about 46 µM | Potency, µM (titrated, usually from 37.8 µM), for inactives: at the highest dose activity change, negative = inhibition, hits mostly inhibitors | 300,000 compounds, 1.8% hits; active = well fitted inhibition curve with a large enough effect; inconclusive = small, poorly fitted or top-dose-only effect, or effect the other way; inactive = flat fitted curve, though single readings scatter; tested in HEK293 cells; about a fifth of its hits are not listed in these tables; further: on the % scale 0 is the no-effect control and ±100 the full control effect; luciferase read-out
Lassa entry inh: Lassa virus entry inhibition; 300,000 compounds, 1.2% hits; Lassa virus pseudotype entry inhibition, cell reporter; control for the full effect not named in the record; Potency, µM (doses to about 37.9 µM), without a hit: at the highest dose activity change, negative = inhibition, hits mostly inhibitors; active means well fitted inhibition curve with a large enough effect; inconclusive means small, poorly fitted or top-dose-only effect, or effect the other way; inactive means flat fitted curve, though single readings scatter; tested in HEK293 cells; further: on the % scale 0 is the no-effect control and ±100 the full control effect; nearly all actives have a fitted effect of over 50% in size; luciferase read-out
Cruzain Triton: inhibitors of Trypanosoma cruzi cruzain with detergent; Potency, µM, without a hit: max response, negative = inhibition, most hits filed as inhibitors; purified cruzain, Z-FR-AMC fluorescence, 0.01% Triton; AID 1478; P25779; 200,000 compounds, 0.43% hits; active means well fitted curve in the direction sought with a large enough effect; inconclusive means small, poorly fitted or top-dose-only effect, or another doubt; inactive means no such curve, though single readings can be large; an effect the other way counts as inactive or inconclusive;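 further: plate controls were neutral wells for no effect and buffer without enzyme for full effect; nearly all actives have a fitted effect of over 40% in size; top concentration of the series not given in the record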
Target sequence (P25779 123-467 limits assumed): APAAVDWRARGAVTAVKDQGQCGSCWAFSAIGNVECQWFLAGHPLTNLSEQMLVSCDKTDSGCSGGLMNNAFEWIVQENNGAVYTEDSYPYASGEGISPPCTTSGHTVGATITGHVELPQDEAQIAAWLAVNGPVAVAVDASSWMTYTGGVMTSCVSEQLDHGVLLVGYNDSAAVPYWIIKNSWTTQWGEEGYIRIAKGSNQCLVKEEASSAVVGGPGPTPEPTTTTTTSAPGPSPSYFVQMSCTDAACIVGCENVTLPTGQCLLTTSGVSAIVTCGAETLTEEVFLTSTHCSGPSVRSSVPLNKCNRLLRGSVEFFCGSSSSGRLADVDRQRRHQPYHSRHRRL
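Read-out: AMC fluorescence (360 nm excitation, 450 nm emission), four reads over 2 min, first-to-third difference used. Conditions: cruzain 1.5 nM, Z-FR-AMC 2 uM, pH 5.5 acetate, 5 mM DTT, 0.01% Triton X-100.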
RE007 growth inh: less growth of the S. pombe RE007 Vpr strain. S. pombe RE007 Vpr strain, BacTiter-Glo ATP luminescence, 24 h; control for the full effect not named in the record. Potency, µM (highest dose often 92.2 µM), for inactives: top-dose activity change, negative = less growth. 360,000 compounds, 0.21% hits. AID 651644; active = well fitted falling curve with a large enough effect; inconclusive = small, poorly fitted or top-dose-only effect; inactive = no such curve, though single readings can be large or run the other way;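 further: on the % scale 0 is the no-effect control and ±100 the full control effect; nearly all actives have a fitted effect of over 50% in size; the assay follows cell death caused by Vpr and the record does not say whether a fall means rescue or toxicity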
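Fission yeast RE007 carrying one integrated HIV-1 vpr copy, seeded at OD 0.01 in PMG+AL medium with 23 nL pinned compound. Grown 24 h at 30 degrees; viability read by BacTiter-Glo luminescence after 5 min.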
Cruzain noTriton: blocks cruzain activity in detergent-free assay; P25779; purified cruzain, Z-FR-AMC fluorescence, no detergent; Potency, µM, inactives show max response, negative = inhibition, most hits filed as inhibitors; 200,000 compounds, 2.3% hits; AID 1476; active means well fitted curve in the direction sought with a large enough effect; inconclusive means small, poorly fitted or top-dose-only effect, or another doubt; inactive means no such curve, though single readings can be large; an effect the other way counts as inactive or inconclusive;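 further: plate controls were enzyme without inhibitor for no effect and buffer without enzyme for full effect; nearly all actives have a fitted effect of over 40% in size; top concentration of the series not given in the record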
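Purified cruzain at 1.5 nM, pre-incubated 15 min with compound at room temperature in 100 mM sodium acetate pH 5.5, 5 mM DTT, 0.00005% Triton X-100. Reaction started with 2 uM Z-FR-AMC; AMC fluorescence increase over 60 s gives rate.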
StopGo reporter: lowers the luciferase signal of an FMDV 2A StopGo reporter | human cells with a luciferase reporter of 2A StopGo recoding; control for the full effect not named in the record | Potency, µM (highest dose often 57.9 µM), without a hit: at the highest dose signal change, negative = less light | 410,000 compounds, 1.2% hits; active = well fitted falling curve with a large enough effect; inconclusive = small, poorly fitted or top-dose-only effect; inactive = no such curve, though single readings can be large or run the other way; tested in HEK293T cells; further: on the % scale 0 is the no-effect control and ±100 the full control effect; nearly all actives have a fitted effect of over 45% in size; luciferase light after 4 h
NS1 function inh: blocks influenza NS1 protein function; 270,000 compounds, 0.4% hits; Potency, µM (highest dose often 46.1 µM), for inactives: at the highest dose activity, positive = more growth; S. cerevisiae slowed by influenza A NS1, growth recovery by OD600; AID 2326; further: actives are rising curves; nearly all actives have a fitted effect of over 50% in size
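In this qHTS, NS1 from influenza A is expressed in budding yeast, where it slows growth. Cells are switched from glucose to 2% galactose medium (pH 6.0, -URA), treated with compound, and growth recovery is read at OD600.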
SARS PLpro yeast: inhibitors of SARS-CoV papain-like protease in yeast; AID 485353; Potency, µM (series often up to 32.9 µM), for the others: top-dose activity, positive = growth rescue; 330,000 compounds, 0.19% hits; S. cerevisiae expressing SARS-CoV PLpro, growth rescue; control for the full effect not named in the record; further: 0% is about no effect; nearly all actives have a fitted effect of over 55% in size; growth read by luminescence after 48 h
* marks the source's active call; other numbers are inactive results; ? = inconclusive; . = no result given; & = joins results of further samples; [ ] = another dose, or the depositor's remark. Unless noted, the call rests on the fitted dose curve; in most records, active means well fitted rising curve with a large enough effect; inconclusive means small, poorly fitted or top-dose-only effect; inactive means no such curve, though single readings can be large or run the other way. Potency means the concentration at half of the fitted maximal effect.

SMILES	MARV entry inh	Lassa entry inh	Cruzain Triton	RE007 growth inh	Cruzain noTriton	StopGo reporter	NS1 function inh	SARS PLpro yeast
COc1cc(-c2noc(C)c2/C=C/c2ccc(N)cc2)cc(OC)c1OC	.	.	.	-3%	.	-3%	10%	4%
N#CC1=C(N)Oc2n[nH]c(-c3cccs3)c2C1C1C=CCCC1 (stereo not given)	-11%	-8%	-8.6%	-9%	-10%	-14%	6%	-5%
Cc1cc(C)nc(/N=C2\NC(=O)CC(C(=O)O)N2c2ccc(Cl)cc2Cl)n1 (stereo not given)	8%[46.1 µM]	-25%[46.1 µM]	.	4%	.	5%	0%	1%
COc1ccc(NC(=S)Nc2cccc(S(=O)(=O)N3CCCCC3)c2)cc1	?	5%	-17%	3%	?	-5%	13µM*	0%
CCCn1c(-c2ccc(S(=O)(=O)N3CCOCC3)cc2)csc1=Nc1ccc(OCC)cc1	11%[46.1 µM]	-15%[46.1 µM]	-4.3%	.	19%	-1%	.	.
CCCOc1cc(N(CC)CC)ccc1/C=C(/C#N)c1nc2ccc(C)cc2[nH]1	?	-27%	-2.2%	-6%	20µM*	?	21%	-9%
O=C(N/N=C/c1ccc(Cl)s1)c1ccccc1[N+](=O)[O-]	19%[46.1 µM]	-8%[46.1 µM]	.	-11%	.	15%	5%	0%
C/C=C(\C)CN1CCC(Oc2cc(C(=O)NC3CC3)ccc2OC)CC1	2%	4%	.	5%	.	-2%	3%	0%
COc1ccc(CCNC(=O)C2CCN(S(=O)(=O)c3cnc[nH]3)CC2)cc1OC	?	-2%	1.0%	17%	-4%	-24%	-3%	-1%
COC(=O)c1ccc(OCC(O)CN2CCC(C)CC2)cc1 (stereo not given)	.	.	1.4%	-1%	-1%	-21%	1%	7%
CCc1ccc(/C(C)=N/NC(=O)CNC(=O)/C=C/c2ccco2)cc1	1%[46.1 µM]	-6%	.	-6%	.	11%	.	.
CC(C)(C)OC(=O)N1CCC[C@H]1c1nnc(SCc2c(F)cccc2Cl)o1	-39%	?	-2.9%	0%	11%	0%	-71%	-4%
CC(C)C1Cc2c(sc(NC(=S)NC(=O)c3ccccc3)c2C#N)CO1 (stereo not given)	.	.	-5.7%	-3%	-14%	19%	12%	8%
Cc1cc(NC(=O)c2ccccc2)sc1C	?	?	-0.3%	?	-11%	-15%	-117%	.
COc1cccc2c1cc1c(=O)n(CC(=O)N3CCN(c4ccc(Cl)cc4)CC3)nc(C)n12	-1%[46.1 µM]	.	4.5%	.	32%	-9%	.	.
O=C(Nc1cccc(OC(=O)N2CCCCC2)c1)N1CCCCC1	18%	-1%	2.3%	-6%	-2%	-22%	-1%	1%
CCCOc1ccc(S(=O)(=O)NCc2ccc(OC)cc2)cc1	-26%	?	-1.7%	1%	11%	0%	-35%	-3%
CCC(Oc1cc(Cl)ccc1Cl)C(=O)NN1C(=O)C2C3CCC(C3=C(C)C)C2C1=O (stereo not given)	-19%[46.1 µM]	?	-1.3%	-18%	3%	-19%	4%	6%
CCc1ccc(OCC(=O)NNC(=O)C2CCN(c3ncnc4sc(C)c(C)c34)CC2)cc1	-10%	11%	.	25%	.	-18%	.	11%
CCOC(=O)C1CCN(c2ccccc2CN2CCN(c3ccccc3OCC)CC2)CC1	.	.	.	-5%	.	0%	5%	0%
CCN(CC)c1ccc(-n2c(O)c(C=C3N=c4ccccc4=N3)sc2=S)cc1	0%	-15%	-2.0%	-5%	?	-10%	9%	6%
COC(=O)C(O)(CC(=O)c1ccc(OC)cc1)C(F)(F)F (stereo not given)	-18%	-1%	-0.1%	-7%	-7%	7%	-2%	0%
CCN(CC)c1ccc(C(=O)NN)cc1	?	2%	.	3%	.	2%	.	-3%
CCn1c(CNc2ccc(C)cc2)nnc1SCC(=O)NCc1ccccc1	12%	-8%	-2.0%	3%	5%	15%	-8%	4%
Cc1ccccc1CCN(CC(=O)NC1CCCCC1)C(=O)c1csnn1	-29%[46.1 µM]	9%	.	-4%	.	4%	1%	-2%

The list continues:
SMILES	MARV entry inh	Lassa entry inh	Cruzain Triton	RE007 growth inh	Cruzain noTriton	StopGo reporter	NS1 function inh	SARS PLpro yeast
COCc1ccc(CN2CCCC(C(=O)Nc3ccc(-c4cscn4)cc3)C2)o1 (stereo not given)	.	.	.	-11%	.	-19%	-4%	0%
CCC(=O)Nc1nc(OC)cc(OC)n1	7%	0%	3.9%	-10%	-3%	-8%	0%	1%
COc1cccc(NC(=S)N2CCN(c3ccc([N+](=O)[O-])cc3)CC2)c1	-21%[46.1 µM]	0%	.	-18%	.	-20%	.	3%
COc1ccc(CCNC(=O)CSc2ccc(NC(C)=O)cc2)cc1OC	14%[46.1 µM]	5%[46.1 µM]	.	1%	.	-23%	0%	4%
COc1cccc(Cn2c(SCc3ccc(C(=O)N4CCC(C)CC4)cc3)nc3ccncc32)c1	?	?	-22%	.	7%	?	.	.
CC1CCN(S(=O)(=O)c2ccc(NC(=O)Cn3nnc(-c4ccccc4F)n3)cc2)CC1	?	6%	-1.4%	2%	-8%	.	1%	1%
CCn1nc(NC(=O)CC(C)C)c2cc3cccc(C)c3nc21	27%[46.1 µM]	2%	.	-1%	.	12%	-5%	-1%
CC(C)(C)c1ccc(Oc2ccc(N)cc2)cc1	?	0.65µM*	-8.2%	15%	5%	2.5µM*	?	?
CC(C)C(=O)Nc1ccc(C(=O)Nc2nnc(C(C)C)s2)cc1	.	.	.	-8%	.	86%[activator]	1%	1%
COc1ccc(C(=O)OCc2nc(N)nc(Nc3ccccc3C)n2)cc1OC	-5%[46.1 µM]	7%[46.1 µM]	.	-17%	.	-10%	.	-1%
CCN(CC)CCNc1ccnc2cc(Cl)ccc12	2.9µM*	-18%	-14%	-9%	-26%	-21%	-1%	4%
CCCCn1c(SCC(=O)N(C)C2CCS(=O)(=O)C2)nc2cc(S(N)(=O)=O)ccc21 (stereo not given)	.	.	.	4%	.	-14%	1%	-1%
O=C(Nc1nnc(C2CC2)s1)c1cc([N+](=O)[O-])ccc1N1CCCCC1	-17%	0%	-6.2%	-6%	?	?	9%	-1%
O=C(NCC(c1ccco1)N1CCOCC1)c1ccccc1 (stereo not given)	?	-12%	.	-4%	.	24%	.	-2%
CCOc1ccccc1CNC(=O)Cn1ccc2cc(S(=O)(=O)N3CCCCCC3)ccc21	.	.	.	-6%	.	-4%	3%	-4%
O=S(=O)(c1cccc(Cl)c1)c1nnn2c1nc(NC1CCCC1)c1sccc12	.	0%[46.1 µM]	-1.7%	.	-7%	-3%	.	.
CCn1c(=S)sc2c(=O)n(-c3ccccc3)c(=S)[nH]c21	?	-8%[46.1 µM]	.	-3%	.	-23%	.	1%
O=C(CN1C(=O)NC2(CCCc3ccccc32)C1=O)N1CCc2ccccc2C1 (stereo not given)	2%	4%	0.4%	21%	-6%	?	-6%	3%
Cc1ccc(Oc2ccc(NS(=O)(=O)c3cccc(C(=O)O)c3)cc2)cc1	16%[46.1 µM]	29%[46.1 µM]	.	-2%	.	-5%	.	1%
NS(=O)(=O)c1ccc(NC(=O)/C=C/c2ccc(S(=O)(=O)NCc3ccco3)cc2)cc1	-4%[46.1 µM]	8%	.	0%	.	10%	7%	-2%
CCCCCN1C(C(=O)c2ccccc2)=C(NC(=O)c2ccc(C)cc2)c2ccccc2S1(=O)=O	?	-21%[46.1 µM]	-4.1%	.	-8%	-5%	.	.
O=C(NCc1ccccc1)N1CCOc2ccccc21	.	.	.	-13%	.	11%	0%	1%
Cc1ccc(NCc2n[nH]c(=S)n2-c2ccccc2)cc1	17%[46.1 µM]	16%[46.1 µM]	.	6%	.	0%	0%	0%
Nc1ccc2nc(-c3cccc(-c4nc5ccc(N)cc5[nH]4)n3)[nH]c2c1	.	.	.	-1%	.	8%	2%	-2%
CCCCNC(=S)Nc1ccc(F)cc1	-23%	4%	.	-15%	.	28%	7%	1%

Further results.
SMILES	MARV entry inh	Lassa entry inh	Cruzain Triton	RE007 growth inh	Cruzain noTriton	StopGo reporter	NS1 function inh	SARS PLpro yeast
O=C1CC(Nc2ccc(N3CCOCC3)cc2)C(=O)N1c1ccccc1 (stereo not given)	4%	2%	1.4%	18%	-10%	.	5%	4%
CCN(CC)S(=O)(=O)c1ccc(-n2cnnn2)c(C)c1	5%	5%	8.0%	6%	-9%	-3%	0%	3%
O=C(Nc1ccccc1)NC1(C(=O)NCCCN2CCOCC2)CCCCC1	7%	14%	1.8%	3%	-7%	-7%	-4%	6%
COc1ccc(OCc2ccc(-c3nc(C#N)c(N4CCN(C)CC4)o3)o2)cc1	-24%[46.1 µM]	?	-7.4%	.	-5%	-24%	.	.
Cc1cc(N2CCN(C)CC2)nc2ccc(NC(=O)Nc3ccccc3Cl)cc12	.	?	-0.9%	.	10%	20%	.	.
CCc1ccc2[nH]c(C(=O)Nc3ccc(Br)c(C)n3)cc2c1	.	.	.	-11%	.	23%	1%	1%
COc1ccc(CNC(=S)Nc2ccccc2)cc1Cl	.	.	.	34%	.	28%	-2%	-3%
CC1Cc2ccccc2N1C(=O)CSc1ncccc1C(=O)O (stereo not given)	0%	-15%	-2.9%	-7%	-1%	.	4%	1%
CCCC[C@@H](CN[C@H](C)CNC)NCC1CCC(C(C)(C)C)CC1 (stereo not given in full)	.	.	.	-14%	.	-15%	-5%	5%
CC(=O)Nc1ccc(S(=O)(=O)N2CCN(S(=O)(=O)N3CCCCC3)CC2)cc1	-26%[46.1 µM]	0%[46.1 µM]	.	2%	.	-5%	.	2%
CCOC(=O)CCn1nc(-c2ccc(C)cc2)c2ccccc2c1=O	-8%&17%[46.1 µM]	-6%[46.1 µM]	-6.8%	5%	-1%	-5%&-6%	-10%	1%
O=C(O)c1ccccc1C(=O)N(Cc1ccccc1)Cc1ccccc1	0%	?	-2.6%	-1%	1%	8%	8%	6%
COc1ccc(C2=NN(C3=NN=C(N)Cc4ncnn43)C(O)(C(F)(F)F)C2)cc1 (stereo not given)	.	.	.	2%	.	-21%	-4%	0%
COc1ccc(NC(=O)CCCC(=O)c2ccccc2)c(OC)c1	.	.	.	1%	.	0%	-4%	-1%
Cc1nc2ccccn2c1C(=O)Nc1ccc2c(c1)OCCO2	?	-8%	-2.1%	5%	-10%	-19%	0%	-11%
CCOC(=O)c1c(C(F)(F)C(F)(F)C(F)(F)C(F)(F)F)n[nH]c1C	?	19%	-16%	-6%	21%	?	0%	-5%
CC(C)OCCCNC(=O)c1cccc(NC(=O)c2ccccc2)c1	16%	1%	-2.4%	29%	-10%	-2%	-9%	-3%

Assay outcomes: PubChem BioAssay, National Center for Advancing Translational Sciences (NCATS)
